# AID504770 – growth inhibition of E. coli YBA685, primary screen, V. cholerae RctB inhibitors. E. coli YBA685 rctB-dependent plasmid, OD600 growth, 3 h; active compounds read low. z-score (concentration not given with the values). 130,000 compounds, 0.27% hits;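 active means z-score under -2 on both plates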;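 further: wells of about 30 µL received 100 nL stock; score is relative to mean and SD of the test wells; the first replicate is given; strong numbers were not always called active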
# CapD inh – Bacillus anthracis CapD inhibitors, primary screen, biochemical, fluorescence intensity; purified CapD enzyme, fluorescence intensity read-out; active compounds read low; some hits fall short of the stated cut; z-score (concentration not given with the values); 140,000 compounds, 0.23% hits; AID 492967, 2010;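 active means z-score under -4 in either of two replicates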;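 further: stock transfer was 100 nL into about 40 µL; score is relative to mean and spread of the plate; one replicate is shown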
# Starred values were filed as active, the others as inactive; i = inactive; x = not tested or not shown. An excerpt; count on the stated rates, not on these rows.
SMILES,AID504770,CapD inh
COc1cc(C2C(C(=O)OCC3CCCO3)=C(C)NC3=C2C(=O)CCC3)ccc1OCc1ccccc1 (centres undefined),x,3.1
Cc1csc(NC(=O)c2ccccc2C(=O)O)c1-c1nc2ccccc2s1,-0.7,-3.4
CCCCC1(O)C(=O)c2ccccc2N(C)C1=O (centres undefined),-0.75,1.2
Cc1nc(S(=O)(=O)c2ccccc2)c(NCc2ccccc2)o1,x,0.045
CCCn1c(=O)/c(=C2/C=Cc3ccccc3N2C)s/c1=C1\SC(=S)NC1=O,-0.2,x
COC(=O)CNC(=O)c1cccnc1Oc1ccccc1,x,0.29
NC(=O)c1c(NC(=O)COC(=O)Cc2ccsc2)sc2c1CCCC2,-2.5,x
CCCNC(=O)c1cc(Cl)cc(Cl)c1,-0.7,-0.28
COc1ccc2c(c1)c1ncn(CCc3ccc(Cl)cc3)c(=O)c1n2C,0,3.3
C/C(=N\OC(=O)c1cc2ccccc2s1)c1cc[nH]c1,x,0.11
CCOC(=O)N1CCN(C(=O)CSc2ncc(C(=O)O)n2-c2ccc(F)cc2)CC1,0.5,x
COC(=O)c1ccc(OC)c(OC)c1Cl,x,0
Nc1nccnc1C(=O)OCC(=O)NC1CC1,1.4,x
N#Cc1cccn1Cc1ccccc1Cl,-0.3,0.09
CC1=NNC(=O)C1CCC(=O)N/N=C/c1ccccc1 (centres undefined),1.2,0
Cc1ccc(-c2cn3nc(-c4ccccc4)c(-c4ccccc4)nc3n2)cc1,x,2
COCCN1Cc2cc3cc4c(cc3nc2SC1=Nc1cccc(OC)c1)OCO4,-0.25,x
CCNc1nc(Sc2ccc(Br)cc2)cc(C(F)(F)F)n1,x,-0.79
CCOC(=O)C(O)c1ccc2c(c1)CCO2 (centres undefined),x,-0.04
COc1cc(-c2onc3ccc(Cl)cc23)ccc1O,0.4,0.75
CN(C)/C=N/n1cnc2ccccc2c1=O,0.25,x
Cc1cc(C)c2c(C)nn(C3CCCCC3)c2n1,-0.6,0.48
N#C/C(C(N)=O)=C1/N=C(N)c2ccccc21,-0.8,x
Cc1ccc2c(c1)c1c(n2C)/C(=N/NC(N)=S)CCC1,0.4,1
Cc1sc(NC(=O)COc2cccc(F)c2)c(C#N)c1C,0.5,-2.1
O=C(O)c1cc2c([nH]c1=O)CCCCC2,-0.9,x
O=C(NCCc1c[nH]c2ccccc12)c1c(Cl)nc2sccn12,0.45,x
O=C(CN1C(=O)C2(OCCO2)c2cc(Br)ccc21)c1ccc(Br)cc1,1.3,-0.52
O=C(c1ccco1)N1C(=O)c2cccc3c(S(=O)(=O)N4CCCC4)ccc1c23,-0.1,0.13
CCC1CN(C)CCC1(O)c1ccccc1 (centres undefined),-0.35,x

# 2 records picked at random from those above:
SMILES,AID504770,CapD inh
Cc1ccc(-c2cn3nc(-c4ccccc4)c(-c4ccccc4)nc3n2)cc1,x,2
CN(C)/C=N/n1cnc2ccccc2c1=O,0.25,x

# (cont.)
SMILES,AID504770,CapD inh
O=C(COc1ccc2ccccc2c1)Nc1c2c(nn1-c1ccc(F)cc1)CS(=O)(=O)C2,1.4,-1.3
Cc1ccc(C(=O)NC(C(=O)N(C)C)=C(Cl)Cl)cc1,-0.2,-2.9
N#Cc1cc2c(nc1SCC(=O)c1ccccc1)CCC2,0.95,x
S=C(Nc1ccc(CN2CCOCC2)cc1)Nc1ccccc1Cl,0.05,-0.57
CC(C)OC(=O)CNc1n[nH]c(=O)[nH]c1=O,0.2,x
CCC1CN(C(=O)NCc2ccc(C)cc2)c2ccccc2S1 (centres undefined),-0.45,0.94
COc1ccc(C2CC(c3ccccc3)=NN2S(=O)(=O)c2ccccc2)cc1 (centres undefined),x,-0.26
Nc1cc(=O)[nH]c(SCC(=O)N2CCCCC2)n1,-0.45,-0.53
Cc1nc2ccccc2c(=O)n1/N=C/c1ccccn1,0.6,x
Cc1nn(Cc2ccccc2)c(Cl)c1/C=C/C(=O)OCc1nnc(-c2ccccc2)o1,0.05,x
Cc1ccc(C)c(N(C)C(=O)c2cc3c(s2)-c2ccccc2SC3)c1,-0.05,7.9
CC1(C)CC(=O)C(CS(=O)(=O)c2ccccc2)=C(O)C1,-0.05,-1.3
O=C(Nc1cccc(Cl)c1)N1CCN(Cc2cc3cccc4c3n(c2=O)CCC4)CC1,x,1.3
NC(=S)NCc1ccc(F)cc1,x,-0.51
CN(C)S(=O)(=O)c1ccc(C(=O)NNc2nc3ccccc3s2)cc1,-0.2,x
O=C(CCSc1ccccc1)c1cccs1,-0.9,0.62
COc1ccc(-c2cc(C(F)(F)F)n3ncc(C(=O)NCc4ccc5c(c4)OCO5)c3n2)cc1OC,x,-0.08
CCOc1ccc(S(=O)(=O)N(CC(=O)NCc2ccccc2)c2ccccc2)cc1,-0.25,-0.1
CCOc1ccc(-n2c(-c3ccccc3)csc2=NC(C)=O)cc1,-0.35,-0.16
CC(=O)NC(CC(=O)O)C(=O)O (centres undefined),x,-0.15
CSc1ccccc1N=Cc1c(O)[nH]c2ccccc12,0.75,-0.68
O=C(O)c1nccnc1C(=O)NCc1ccccc1,0.35,18
CC(C)C1C(=O)OC2c3ccccc3C(=O)N21 (centres undefined),0.9,-0.035
Cc1nc(C(F)(F)F)ccc1C(=O)NCCc1cccs1,-0.45,-0.05
CCOC(=O)C1C(=O)CC(O)(c2ccccc2)CC1c1ccccc1 (centres undefined),1.8,-0.69
COC(CNC(=O)Cn1ncc2c(=O)oc3ccccc3c21)OC,-0.3,0.18
Cc1cc(C)c(C(=O)COC(=O)C2=NNC(=O)CC2)c(C)c1,0.6,x
CCOc1ccccc1N1CCN(CC(=O)Nc2ccc3c(c2)OC(F)(F)O3)CC1,-0.25,x
Cc1onc(-c2ccccc2Cl)c1C(=O)N1CCN(C)CC1,0.3,0.15
CCc1ccc2c(c1)C(NC(C)=O)C(=O)N2C (centres undefined),0.45,0.38
CSc1nc(Sc2cc(Cl)ccc2Cl)c2ccccc2n1,x,0.27
C=CCSc1nc2c(c(=O)n1C1CCOC(C)(C)C1)C1(CCCCC1)Cc1ccccc1-2 (centres undefined),x,-0.33
CCOC(=O)c1c2n(c3cc(Br)c(OC)cc13)CCN(c1ccc(OC)cc1)C2,x,-0.12
CCOC(=O)C1CCN(S(=O)(=O)c2cccs2)CC1,0.65,0.63
C=CCc1ccccc1Oc1cc(OC)nc(N)n1,-0.45,-0.27
Cc1nnc(SCC(=O)NC2CCCCC2)[nH]c1=O,0.85,0.35
CCNC(=O)OCCC12CC3CC(CC(C3)C1)C2,0,0.51
CSC1=NC(=Nc2cccc(C)c2)C2(CCCC2)N1c1ccc(Br)cc1,x,-0.45
O=C(NCc1nc(-c2ccc(C(F)(F)F)cc2)no1)c1ccccc1C(F)(F)F,-1.1,0.22
COc1ccnc(Oc2ccccc2)c1C(=O)N/C=N/OCc1ccccc1F,x,-0.22
N#CCCNCc1ccco1,-0.75,x
CCSc1nnc2[nH]c(=O)c(C)c(C)n12,1,x
COC(=O)C1=C(C)N(Cc2ccccc2)C(=O)NC1c1ccccc1 (centres undefined),0.25,x
COc1cc(S(=O)(=O)N(CC(=O)Nc2c(C)cccc2C)CC2CCCO2)ccc1-n1cnnn1 (centres undefined),0.1,x
CC1=NOC(=O)/C1=C/c1ccc(N2CCOCC2)cc1,-0.95,4.5
Cc1sc2ncnc(Sc3ncnc4sccc34)c2c1C,0.3,x
CC(C)(C)OC(=O)N1CCC(CNC(=O)c2ccno2)CC1,-0.7,0.65
CCOc1cc(C2NC(=O)NC(C)=C2C(=O)OCc2ccc3c(c2)OCO3)ccc1O (centres undefined),x,-0.93
CCn1cc(CCCC(=O)N2CCC3(CC2)OCCO3)c2ccccc21,-0.1,-0.15
COc1ccccc1Nc1cc(N2CCCCC2)c2nonc2c1[N+](=O)[O-],x,-0.12
CCN(CC)C(=O)CSc1nc2cc(OC)c(OC)cc2c(=O)n1Cc1ccc(Cl)cc1,0.65,0.35
O=C1C2(c3ccccc3)CN(CCCO)CC1(c1ccccc1)CN(CCCO)C2,1.6,-0.1
Cc1cccc(NC(=S)N2CCOC2c2ccsc2)c1 (centres undefined),0,1.2
COc1ccc(-c2c(S(=O)(=O)c3ccccc3)cnn2-c2ccccc2)cc1,x,-0.47
N#Cc1cc(Cl)c2c(c1)OCCO2,-0.8,x
NC(=O)C1CCN(CC(O)COc2ccc3c(c2)OCO3)CC1 (centres undefined),-0.55,-2.1
CN1/C(=c2/s/c(=C3\SC(=S)N(C4CCCCC4)C3=O)n(C3CCCCC3)c2=O)Sc2ccccc21,x,-0.24
Cc1ccc2c(c1)c(-c1ccccc1)c(-c1ccccc1)n2CC(O)CN1CCCCC1 (centres undefined),x,65
COc1ccc(C2C(C(=O)NCc3ccccn3)c3cc(OC)c(OC)cc3C(=O)N2C)cc1OC (centres undefined),-0.6,0.2
CC(=O)N(C(C)=O)c1ncnc2c1c(-c1ccc(Cl)cc1)nn2C(C)(C)C,x,26

# Next part.
SMILES,AID504770,CapD inh
O=C(O)COc1ccccc1/C=N/NC(=O)C1CC1,-0.4,x
COc1ccc(N2CCN(C(=O)c3sc4ncn(CC(=O)N5CCCCC5)c(=O)c4c3C)CC2)cc1,-0.2,0.13
O=C(Nc1ccc2c(c1)OCCO2)c1ccc2nccnc2c1,0.25,-0.6
Cc1ccc(C)n1-c1ccc(NC(=O)c2ccccc2)cc1,0.05,x
Cc1ccccc1Nc1ncc(-c2cccs2)s1,-0.55,i
CCOC(=O)N1CCN(C(=O)c2ccc(NS(=O)(=O)c3ccccc3)cc2)CC1,0.3,0.25
O=C(Nc1ccc(-c2cc3ccccc3o2)cc1)C1CC1,0.05,113
Cc1ccc(C(=O)Cn2nnc(-c3ccccc3Cl)n2)cc1,-0.3,0.045
CCOC(=O)c1ccc2c(c1)c(C)c(C)n2Cc1ccccc1,-0.65,-0.62
C[N+](C)(CCCOc1ccccc1)c1ccccc1,x,24
N#Cc1cc(-c2cccc(C(F)(F)F)c2)cn(Cc2ccc(Cl)cc2)c1=O,x,71
CC(C)=CC(=O)CC(O)(c1ccccc1)c1ccccc1,-0.6,0.05
CC(O)(CS(=O)(=O)c1ccccc1)C(=O)Nc1ccc(Cl)cc1 (centres undefined),x,-0.39
Cn1c(SCc2cc(=O)[nH]c(C(C)(C)C)n2)nnc1C(F)(F)F,-0.15,0.005
O=C(Cn1ncc2c3ccccc3n(Cc3ccccc3F)c2c1=O)NC1CC1,-0.3,1.5
CCOC(=O)c1ccc(NC(=O)Cn2ncc3ccccc32)cc1,-0.35,-0.24
Cc1cc2ccccn2c1C(=O)c1ccco1,-0.1,x
COc1ccc(CC(=O)Nc2nccs2)cc1OC,0.25,2.9
O=[N+]([O-])c1ccc(Cl)c(S(=O)(=O)Nc2ccc3oc4c(c3c2)CCCC4)c1,x,-0.43
Cc1cc(S(=O)(=O)N2CCC(NC(=O)Cc3ccccc3)CC2)c(Cl)cc1Cl,1.8,0.78
COc1ccc(CN2C(=O)C(O)(CC(=O)c3ccc4c(c3)OCO4)c3ccccc32)cc1OC (centres undefined),-0.45,1.6
O=C(NCc1cccnc1)c1ccc(CSCc2cccc(F)c2)o1,-1.2,-0.43
Cc1ccn2c(=O)cc(CSc3nnc(-c4cccs4)n3C3CC3)nc2c1,0.45,x
COc1ccc(C(=O)OCc2nnc(-c3ccccc3)o2)cc1S(=O)(=O)Nc1ccc(C)cc1,0.1,x
O=C(c1cccnc1Nc1cccc(Cl)c1)N1CCCCC1,2.4,x
CCCn1nnnc1NC(=S)NC(=O)c1cc2ccccc2o1,-1.1,0.015
Cc1ccc(SCc2cn3c(C)cc(C)nc3n2)cc1,0.25,3.7
COCC(C)NC(=S)Nc1ccc(F)cc1 (centres undefined),-1.4,x
Oc1ccc(-c2nnc(SCC3CCCCC3)o2)cc1,1.1,x
CCOC(=S)SCc1nc2ccccc2c(=O)n1-c1ccccc1,1,1.1
O=c1cnnc(NC2CCCCC2)[nH]1,-1.4,x
O=c1[nH]c(=S)[nH]c2c1C(c1cc([N+](=O)[O-])c(N3CCOCC3)cc1N1CCOCC1)O2 (centres undefined),x,3.7
CC1(C)CC(=O)C(C=NC23CC4CC(CC(C4)C2)C3)=C(O)C1,-1.4,0.27
Cc1cc(C)c2c(=O)n(CC(=O)NCCc3ccc(Cl)cc3)sc2n1,-1.1,-0.28
NC(=O)C1CCN(c2nc(-c3ccccc3F)nc3ccccc23)CC1,x,-0.67
CCOc1cccc2c1OC(c1ccc(F)c(F)c1)N1N=C(c3ccc(OC)cc3)CC21 (centres undefined),x,-0.98
CN(C)c1cc(NCCN2CCCCC2)c2c3c(onc13)-c1ccccc1C2=O,1.6,-0.3
Oc1ccc(NCc2ccc(Br)cc2)cc1,-0.7,-0.89
CCCCOC(=O)n1c(SCC(=O)OCC)nc2ccccc21,x,-0.51

# Filtered by structure: the entries above containing two or more sulfur atoms
SMILES,AID504770,CapD inh
Cc1csc(NC(=O)c2ccccc2C(=O)O)c1-c1nc2ccccc2s1,-0.7,-3.4
CCCn1c(=O)/c(=C2/C=Cc3ccccc3N2C)s/c1=C1\SC(=S)NC1=O,-0.2,x
NC(=O)c1c(NC(=O)COC(=O)Cc2ccsc2)sc2c1CCCC2,-2.5,x
Cc1ccc(C)c(N(C)C(=O)c2cc3c(s2)-c2ccccc2SC3)c1,-0.05,7.9
CN(C)S(=O)(=O)c1ccc(C(=O)NNc2nc3ccccc3s2)cc1,-0.2,x
O=C(CCSc1ccccc1)c1cccs1,-0.9,0.62
CSc1nc(Sc2cc(Cl)ccc2Cl)c2ccccc2n1,x,0.27
CCOC(=O)C1CCN(S(=O)(=O)c2cccs2)CC1,0.65,0.63
Cc1sc2ncnc(Sc3ncnc4sccc34)c2c1C,0.3,x
Cc1cccc(NC(=S)N2CCOC2c2ccsc2)c1 (centres undefined),0,1.2
CN1/C(=c2/s/c(=C3\SC(=S)N(C4CCCCC4)C3=O)n(C3CCCCC3)c2=O)Sc2ccccc21,x,-0.24
Cc1ccccc1Nc1ncc(-c2cccs2)s1,-0.55,i
Cc1ccn2c(=O)cc(CSc3nnc(-c4cccs4)n3C3CC3)nc2c1,0.45,x
CCOC(=S)SCc1nc2ccccc2c(=O)n1-c1ccccc1,1,1.1

# Compound activity from PubChem.
